# Bioassay records: PubChem BioAssay, National Center for Advancing Translational Sciences (NCATS)
# Rango-impB inh – Rango-importin beta binding inhibition | hit rate 0.031% among 340,000 | Rango CFP/YFP FRET sensor + importin beta, 45 min | Potency, µM (highest dose often 92.2 µM), for the others: at the top dose inhibition of complex formation | AID 540263; active = rising FRET ratio curve, often small or poorly fitted; inconclusive = mostly compound fluorescence or quenching in the first reads; inactive = flat curves in all reads;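 further: potency means the concentration at half of the fitted maximal effect; 0% = DMSO wells and 100% = buffer wells lacking importin beta; nearly all actives have a fitted effect of over 15% in size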
#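 Inhibition scored from the CFP 486 nm/YFP 530 nm FRET ratio 45 min after adding 0.125 microM importin beta to 50 nM Rango biosensor preincubated 5 min with compound (room temperature, PBS with DTT, Tween-20, BSA). No-importin wells as positive control.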
# GLA inh pH 4.5 – alpha-galactosidase A (human) inhibition, pH 4.5; P06280; purified enzyme, 4-MU-alpha-Gal fluorescence, pH 4.5; 230,000 tested, under 10 active; AID 1467; activity change, negative = inhibition, % at 105 µM; inconclusive = small, poorly fitted or top-dose-only inhibition, or a rising curve; inactive = flat fitted curve, though single readings scatter; no compound was filed as active;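 further: 0% = full activity with enzyme and -100% = basal without enzyme; dose as in the result columns while the protocol names 77 µM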
# Target sequence (P06280 whole entry, looked up): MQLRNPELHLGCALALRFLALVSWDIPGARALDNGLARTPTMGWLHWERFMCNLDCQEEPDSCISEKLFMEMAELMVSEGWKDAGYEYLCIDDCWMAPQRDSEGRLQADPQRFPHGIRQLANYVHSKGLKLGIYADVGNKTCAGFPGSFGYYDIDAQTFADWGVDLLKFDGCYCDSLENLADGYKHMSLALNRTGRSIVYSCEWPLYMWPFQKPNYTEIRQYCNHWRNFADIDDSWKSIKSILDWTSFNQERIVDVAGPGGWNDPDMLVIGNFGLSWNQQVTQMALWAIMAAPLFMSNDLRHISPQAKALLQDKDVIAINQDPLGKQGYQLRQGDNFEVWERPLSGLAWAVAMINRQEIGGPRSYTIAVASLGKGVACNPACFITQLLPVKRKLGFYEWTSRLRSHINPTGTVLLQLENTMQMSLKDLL
# Rango release inh – inhibitors of RanGTP-induced Rango-importin beta complex dissociation; O95149+P62826; Biochemical FRET Rango-importin beta, RanGTP-induced dissociation; Potency, µM (highest dose often 46.1 µM), without a hit: top-dose activity change, negative = inhibition; hit rate 0.071% among 340,000; AID 540253; active means falling FRET ratio curve, often poorly fitted, with flat reads before Ran was added; inconclusive means other falling curves, or compound fluorescence or quenching; inactive means flat or rising ratio curve;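 further: potency means the concentration at half of the fitted maximal effect; % of control where 0% means no effect; nearly all actives have a fitted effect of over 45% in size; -100% = wells without RanGTP and RCC1; the record marks most hits as doubtful in a second field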
#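 Rango (0.1 uM)–importin beta (0.25 uM) complex; RanGTP-RCC1 trigger; 45 min RT; CFP/YFP FRET read.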
# miR-21 reporter – raises the signal of a miR-21 reporter | AID 2288 | Potency, µM (doses to about 38.3 µM), inactives show at the top dose reporter change, positive = more light | 340,000 tested, under 10 active | HeLa miR-21 FLuc reporter, luciferase, 48 h; active = well fitted rising curve with a large enough effect; inconclusive = small, poorly fitted or top-dose-only effect; inactive = no such curve, though single readings can be large or run the other way;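 further: % of control where 0% means no effect; miR-21 action dims this reporter so a rising signal means less miR-21 action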
#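 HeLa miR-21-FLuc reporter line, endogenous miR-21; 2000 cells/well in DMEM/10% FBS; compound titration up to ~40uM final, 48 h, 37 degree Celsius; luciferase detection reagent, 15 min lysis, CCD luminescence.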
# The depositor's hits bear a star; ? = inconclusive; / = no result given; & = joins results of further samples; [ ] = another dose, or the depositor's remark. An excerpt (hit frequency here may not be typical).
SMILES,Rango-impB inh,GLA inh pH 4.5,Rango release inh,miR-21 reporter
CCOc1ccc(CNC(=O)CCS(=O)(=O)c2ccc3c(c2)oc(=O)n3C)cc1,2.7%,/,6%,0%&-3%
COc1ccc(NC(=O)C2CCN(S(=O)(=O)c3cccc4cccnc34)CC2)cc1,-2.4%,-19,6%,-4%
CCOC(=O)c1cc(-c2csc(N/N=C/c3ccccc3Cl)n2)on1,?,-2,-11%,5%
COCCN1CN=C(NS(=O)(=O)c2ccc(C)cc2)NC1,2.3%,/,-19%,-2%&-3%
CCN(C(=O)CSc1nncn1-c1ccccc1)c1c(N)n(Cc2ccccc2)c(=O)[nH]c1=O,-4.0%,3,-10%,-7%
COC(=O)[C@H](CCSC)NC(=O)Nc1cc(C)ccc1C,-0.4%,6,5%,-3%
Nc1cc(Cl)ccc1C(=O)OCC(=O)N1CCCC1,-0.5%,/,-3%,-35%
Cc1ccccc1Nc1nc(N)nc(CN2C(=O)NC3(CCCCC3C)C2=O)n1 (centres undefined),0.3%,-4,-7%,-11%
COc1ccc(Cl)cc1CNCCCSc1ncccn1,-2.8%,/,4%,-8%
Nc1ccc(S(=O)(=O)NC(=O)c2ccccc2)cc1,-3.4%,3&4&-5,?,0%
COc1ccc(-c2cc(C(F)(F)F)n3nc(C(=O)NCc4ccco4)c(Cl)c3n2)cc1,?,-3,?,-15%
COc1ccc(-c2noc(CSc3nnc(Cc4ccccc4)n3-c3cccc(C)c3)n2)cc1OC,-0.1%,-25,0%,2%
C=CCn1c(SCC(=O)NCc2ccco2)nnc1-c1ccc2ccccc2n1,1.1%,-9,-6%,7%
O=[N+]([O-])c1ccc2cn(-c3ccccc3)nc2c1,2.8%,-2,3%,-67%
COc1ccc(Cn2nnnc2C(c2ccncc2)N2CCOCC2)cc1 (centres undefined),-0.5%,5,-2%,-1%
O=C(Nc1cccc(S(=O)(=O)NC2=NCCC2)c1)c1ccc(F)cc1F,-1.0%,/,-6%,/
CCCCn1c(N)c(N(CC)C(=O)c2c(C)noc2C)c(=O)[nH]c1=O,1.5%,/,17%,/
CC1=C(C(N)=O)C(c2ccncc2)n2nc(-c3ccccc3Cl)nc2N1 (centres undefined),-7.1%,3,-1%,-10%
CCN(CC)c1ccc(NC(=O)c2ccc(Br)o2)c(C)c1,-2.3%,-3,-2%,-21%
CC(=O)Nc1cccc(OCCCNC(=O)c2cccc3ccccc23)c1,-1.1%,0,1%,-34%

# Given field by field: entries from further up.
CCCCn1c(N)c(N(CC)C(=O)c2c(C)noc2C)c(=O)[nH]c1=O
- Rango-impB inh: 1.5%
- GLA inh pH 4.5: /
- Rango release inh: 17%
- miR-21 reporter: /

CC1=C(C(N)=O)C(c2ccncc2)n2nc(-c3ccccc3Cl)nc2N1 (centres undefined)
- Rango-impB inh: -7.1%
- GLA inh pH 4.5: 3
- Rango release inh: -1%
- miR-21 reporter: -10%

# Limited to Rango-impB inh, Rango release inh and GLA inh pH 4.5, for some of the entries so far:
mol | Rango-impB inh | Rango release inh | GLA inh pH 4.5
COc1ccc(-c2noc(CSc3nnc(Cc4ccccc4)n3-c3cccc(C)c3)n2)cc1OC | -0.1% | 0% | -25
C=CCn1c(SCC(=O)NCc2ccco2)nnc1-c1ccc2ccccc2n1 | 1.1% | -6% | -9

# Continued:
SMILES,Rango-impB inh,GLA inh pH 4.5,Rango release inh,miR-21 reporter
COc1ccc(C2CC(=O)C(C=NCCN3CCN(C(C)=O)CC3)=C(O)C2)cc1 (centres undefined),3.1%,4,10%,2%
CCOc1ccccc1N(CC(=O)NCC1CCCO1)C(=O)CCC(=O)Nc1ccccn1 (centres undefined),-4.4%,-2,7%,-1%
C/C(=N\NC(=O)c1nnn(-c2nonc2N)c1CN1CCOCC1)c1ccc(CC(C)C)cc1,?,/,-4%,0%
CCC(CO)Oc1cc(NCc2cccc(Cl)c2)c2ncn(C(C)C)c2c1 (centres undefined),?,/,?,/
C=CC[C@@H](CC(=O)NCCO)C(=O)N[C@@H](C)COC(=O)[C@@H](CC=C)Cc1ccc(F)cc1,2.9%,/,0%,/
Cc1cccc(C)c1NC(=O)COC(=O)C1C2CC3OC(=O)C1C3C2 (centres undefined),0.8%,/,-8%,9%
CN(CC(=O)Nc1ccc(N2CCOCC2)cc1)C(=O)CC(c1ccccc1)c1ccccc1,-0.3%,-10,-1%,1%
O=C(Cc1ccc(Cl)cc1)NCc1ccccc1Cl,2.8%,-18[21.1 µM],5%,-29%
COc1cc2c(cc1OC)C1C(C(=O)Nc3ccccc3N3CCN(C)CC3)c3ccccc3C(=O)N1CC2 (centres undefined),0.9%,7,8%,-4%
CCOc1ccccc1-n1c(N)c(C(N)=O)sc1=S,-0.6%,-3,-10%,0%
CN1CCN(c2ccc(Nc3ccnc4cc(Cl)ccc34)cc2)CC1,?,/,7%,8%
CSC1=NC(NCCCO)c2c(sc3c2CC(C)(C)OC3)N1 (centres undefined),-3.8%,10,25%,0%
Cc1nnc(NC(=O)c2ccncc2)s1,-2.2%,0,9%,-1%
O=[N+]([O-])c1cccc(-c2n[nH]c(=S)n2-c2ccccc2)c1,1.6%,0,-4%,-4%
COc1ccc(C(=O)NCCCN(C)CCCNC(=O)c2ccc(OC)cc2)cc1,8.2%,/,14%,-3%
C=CCn1c(O)c2ccc(C(=O)N=NC(=O)c3ccc(F)cc3)cc2c1O,-3.0%,/,-7%,/
COc1ccc(-c2ccc3c(c2)S(=O)(=O)c2cccc(C(=O)NC4CC4)c2C3=O)cc1OC,6.3%,/,1%,/
CC1CCCC(C)N1C(=O)COC(=O)c1ccc([N+](=O)[O-])o1 (centres undefined),0.3%,/,-7%,/
N#CCCn1cc(CNC2CCC(O)CC2)c2ccccc21 (centres undefined),6.4%,/,-10%,1%
Cc1cccc(NC(=O)c2ccc3nsnc3c2)c1C,-3.0%,4,1%,-19%
O=C(NNc1nc(Nc2ccccc2)nc(N2CCOCC2)n1)Nc1ccc(Cl)cc1,1.0%,5,-11%,28%
CC1CCCCC1NC(=O)CN1CCN(S(=O)(=O)c2ccc(Br)s2)CC1 (centres undefined),-0.9%,/,-5%,/
Cc1ccc(-c2ccc(/C=N/N=C3/NC(=O)C(CC(=O)O)S3)o2)c([N+](=O)[O-])c1 (centres undefined),-2.6%,-4,-12%,-3%
COC(=O)c1sccc1NC(=O)NC1CCCCC1,?,5[21.1 µM],13%,-13%
O=C(c1ccccc1)C1(c2ccccc2)OC1c1ccccc1 (centres undefined),5.0%,/,-3%,/
Cc1ccc2nc(SCC(=O)N3CCCCC3)nc(=O)n2c1,-2.3%,/,-14%,/
COc1cc(O)c(C(CC(=O)N2CCOCC2)c2ccc(N(C)C)cc2)c(OC)c1 (centres undefined),-0.8%,-1,-7%,8%
Cc1ccc(C(=O)NCCc2ccccc2)cc1S(=O)(=O)N1CCOCC1,-0.9%,/,5%,/
CCC(C)(C)C1CCC2(CC1)NC(=O)N(CC(=O)N1CCN(S(=O)(=O)c3cc(C)ccc3C)CC1)C2=O (centres undefined),-1.3%,/,-5%,-5%
CCc1ccc(-c2ccc(C(=O)O)cc2)nc1,0.1%,-3,2%,-24%
COCC(C)NC(=O)c1cc(-c2ccc(OC)c(OC)c2)on1 (centres undefined),3.2%,-8,-1%,-21%
COc1cc(/C=N/Nc2nn3cnnc3c3ccccc23)cc(OC)c1OC,1.7%,-15,-1%,-4%
Cc1nc2cc(Cl)c(Cl)cc2n1CCCO,-1.4%,5,-1%,-5%
CC(=O)N(Cc1ccc2c(c1)OCO2)C1CC(=O)N(CCc2ccccc2)C1=O (centres undefined),-0.2%,10,-7%,-12%
COCCNC(=O)C(c1ccc(O)cc1)N(C(=O)CCC(=O)Nc1nccs1)c1cccc(C)c1 (centres undefined),2.0%,1,0%,3%
Cc1ccc(/C=N/NC(=O)c2nnn(-c3nonc3N)c2CN(C)c2ccccc2)s1,1.8%,/,3%,-4%
CCC(C)(C)NC(=O)CN(C(=O)CCC(=O)Nc1cc(C)ccn1)c1ccc2c(c1)OCO2,-3.1%,7,0%,-8%
Cc1ccccc1CSc1nn2c(=O)c(C)nnc2s1,-3.6%,6,-9%,0%
O=[N+]([O-])c1ccc(Cl)c(/C=N/N2CCN(c3ccccc3)CC2)c1,0.4%,1,0%,-9%
Cc1cc(C(F)F)n2ncc(C(=O)NCc3ccccc3F)c2n1,-1.1%,3,-12%,-42%
COc1ccccc1NC(=O)Oc1cccc(OC(=O)c2ccccc2)c1,0.4%,1,21%,-7%
COc1ccc(-n2ccnc2SCC(=O)NC2CCCC2)cc1,-1.5%,/,23%,/
CCCc1ccccc1OCCNS(=O)(=O)c1cc2c(cc1C)OCC(=O)N2,0.1%,/,3%,21%
Cc1cccc(/C(N)=N/OC(=O)N2c3ccccc3Sc3ccccc32)c1,?,-3,-10%,-1%
CCOC(=O)N1CCC2CC1c1cc(-c3cccc(OC)c3)ccc12 (centres undefined),0.2%,/,4%,/
O=C(O)c1ccn[nH]1,4.4%,/,-3%,/
CCOC(=O)c1ccc2[nH]c(C)c(CN3CCN(C)CC3)c(=O)c2c1,0.8%,/,28%,/
Cc1cccc(CCNC(=O)C2CCN(S(=O)(=O)c3c(C)noc3C)CC2)c1,3.0%,1,0%,-4%
Cc1ccc(CC(=O)Nc2cc([N+](=O)[O-])ccc2F)cc1,-0.5%,9,-10%,0%
Cc1cc(NS(=O)(=O)c2ccc(NC(=O)CN3C(=O)c4ccccc4C3=O)cc2)nc(C)n1,2.5%,6,2%,0%
C[C@H](NC(=O)c1cc2c(cn1)[nH]c1ccccc12)C(=O)O,4.2%,/,-1%,-2%
CCCCn1c(=O)cc(O)c2ccccc21,-3.0%,-2,21%,1%
COc1ccc(C(=O)O/N=C(\N)c2ccccn2)cc1,-2.4%,/,-10%,20%
CC(C)(C)c1ccccc1OCC(=O)Nc1ncn[nH]1,-0.5%,3,1%,7%
CCN(CC)C(=O)N1CCN(S(=O)(=O)c2ccc(C)cc2)CC1,4.1%,-13,24%,-2%
CC(=O)N1CCN(c2ccc(NC(=S)NC(=O)/C=C/c3ccccc3)cc2)CC1,/,8,/,-1%
COC(=O)C1=CN(Cc2ccc(OC)cc2)C=C(C(=O)OC)C1c1cccs1,-4.3%,?,-7%,-1%
CC(=O)Nc1ccc(NC2=Nc3ccccc3N3C2=Nc2c(c(C)nn2-c2ccccc2)C3c2ccccc2)cc1 (centres undefined),?,9,?,-6%
Cc1ccc(C(=O)CSc2nc3cc(S(=O)(=O)N4CCOCC4)ccc3o2)cc1,-5.8%,2,8%,-3%
CCCn1c(=O)c(C(=O)NCc2ccccn2)c(O)c2ccccc21,-4.6%,1,4%,-1%
# Remaining list, next part:
SMILES,Rango-impB inh,GLA inh pH 4.5,Rango release inh,miR-21 reporter
NC(=O)C1(N2CCCCC2)CCN(Cc2nc(-c3cccs3)no2)CC1,2.7%,-8,-13%,4%
COC(=O)C1=C(O)/C(=C\c2sccc2C)N=C1C,?,0,?,-11%
O=C(CN1CCN(c2ccc(O)cc2)CC1)NC(=O)NCc1ccco1,-1.5%,7,-11%,1%
O=C1c2c(Br)c(Br)c(Br)c(Br)c2C(=O)N1c1ccccn1,?,/,-13%,0%
CCOCCCNC(=O)CN1CCN(Cc2ccccc2C)C1=O,-4.4%,4,8%,0%
COc1ccccc1N1C(=O)C2C3C=CC(C3)C2C1=O (centres undefined),3.7%,3,1%,1%
C/C(N)=C(/C#N)C(=O)COc1ncnc2ccc(Br)cc12,-0.8%,-20,-11%,-12%
C=CCN(c1ccccc1)S(=O)(=O)c1cccc(C(=O)Nc2nc3ccccc3[nH]2)c1,0.0%,-2,-15%,12%
CN1Cc2c(N3CCOCC3)nc3sc(C(=O)c4ccc(Br)cc4)c(N)c3c2CC1(C)C,?,-15,?,?
CC1COc2ccccc2N1C(=O)c1ccc(Cl)nc1 (centres undefined),9.1%,6,2%,0%
CSc1nc(NCC(C)C)nc(N2CCOCC2)n1,0.3%,-9,28%,-3%
Cc1ccc(C(=O)Nc2cccnc2)cc1S(=O)(=O)N1CCCCCC1,-1.1%,/,-1%,-8%

# Compounds listed so far that have a cyano group, in the order listed:
SMILES,Rango-impB inh,GLA inh pH 4.5,Rango release inh,miR-21 reporter
N#CCCn1cc(CNC2CCC(O)CC2)c2ccccc21 (centres undefined),6.4%,/,-10%,1%
C/C(N)=C(/C#N)C(=O)COc1ncnc2ccc(Br)cc12,-0.8%,-20,-11%,-12%
